Screening results as filed in PubChem BioAssay.
HPDE-C7K KRASV12 – cytotoxicity in KRAS-transformed pancreatic duct cells, primary screen, cell-based, fluorescence, HTS (AID 431); HPDE-C7K KRASV12 cells, Alamar Blue viability, 48 h; higher % means a stronger effect; one-dose cytotoxicity, % at 10 µM; EC50 in µM for titrated hits; 1.7% of 63,000 active;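 active means compounds whose percent cytotoxicity in the single-dose primary screen, scaled between solvent and toxic-drug controls, exceeds 50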;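 further: 0% = DMSO solvent wells and 100% = doxorubicin-treated wells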
HPDE-C7 cytotoxicity – HPDE-C7 pancreatic duct cell viability loss – fluorescence, HTS (AID 430) | HPDE-C7 pancreatic duct cells viability, fluorescence; higher % means a stronger effect | cytotoxicity, % at 10 µM; hits with a dose series show EC50 in µM | 1.8% of 63,000 active;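 further: cells exposed to compound for 48 hours before viability readout; 0% = vehicle and 100% = reference cytotoxic drug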
HT1080 viability – cytotoxicity in HT1080 fibrosarcoma cells, cell-based, fluorescence readout (AID 620) | cytotoxicity, % at 10 µM, or EC50 in µM where a hit was titrated | 0.42% of 87,000 active | HT1080 viability, fluorescence; higher % means a stronger effect;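 further: cells exposed to compound overnight then 4 h with Alamar Blue; 0% = vehicle DMSO and 100% = killing control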
TNAP inhibition – human TNAP enzyme inhibitors, biochemical, luminescent (AID 518). inhibition, % at 20 µM; hits with a dose series show IC50 in µM. 0.09% of 64,000 active. purified TNAP enzyme, luminescent substrate readout; higher % means a stronger effect; in the data active means a potency from the dose series; inactive means the rest, 99 in 100 with inhibition below about 22%;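 further: plate controls were vehicle for no effect and reference inhibitor for full effect; many of its hits are not listed in these tables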
LYP phosphatase – LYP phosphatase inhibitors, primary screen, biochemical, DiFMUP fluorescence, recombinant catalytic domain, 10 µM (AID 606); recombinant LYP catalytic domain, DiFMUP fluorescence; higher % means a stronger effect; 52,000 tested, under 10 active; inhibition, % at 10 µM; hits with a dose series show IC50 in µM;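 active means IC50 under 40 µM in the dose-response test; inactive means IC50 of 40 µM or more, or never dose-tested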
Bfl-1 displacement – Bfl-1 inhibitors, primary screen, biochemical, fluorescence polarization, FITC-Bid, mouse (AID 432). one-dose displacement, % at 20 µM; IC50 in µM for titrated hits. 0.02% of 64,000 active. FITC-Bid BH3 peptide fluorescence polarization displacement; higher % means a stronger effect; in the data active means a potency from the dose series; inactive means the rest, 99 in 100 with displacement below about 15%; further: strong numbers were not always called active
Starred values were filed as active, the others as inactive; nt = not tested or not shown. Unless noted, no stated cut-off is given here; in the data, active means cytotoxicity above about 50%; inactive means the rest. Not all compounds are listed; rates above refer to the full screens.

(1) C=CCOC(=O)c1sc(NC(=O)c2ccco2)nc1C
(2) CCN(CCCNC(=O)c1[nH]c(C)c(C(C)=O)c1C)c1ccccc1
(3) CCCCn1nnnc1NCc1ccc(OC)c(OC)c1
(4) CC1CCN(C(=O)CN(C)S(=O)(=O)c2cccc3nsnc23)CC1
(5) O=C(N/C(=N\O)c1ccccc1)Nc1ccc(Cl)cc1
(6) CC(COc1ccccc1)N(CCCl)Cc1ccccc1 (stereo not given)
(7) CCCC(C(=O)NC1CCCCC1)N(Cc1ccco1)C(=O)CNS(=O)(=O)c1ccccc1 (stereo not given)
(8) COc1ccc(OC)c(-c2oc3ccccc3c(=O)c2O)c1

compound no. | 1 | 2 | 3 | 4 | 5 | 6 | 7 | 8
HPDE-C7K KRASV12 | 23.1% | 11.4% | 2.1% | 0.1% | -0.6% | 10.3% | -3.8% | -22.5%
HPDE-C7 cytotoxicity | 25.9% | 9.1% | 3.3% | -8.0% | 7.5% | -12.0% | -11.3% | -13.3%
HT1080 viability | 1.8% | 12.1% | -3.9% | -4.0% | 20.9% | 19.8% | nt | 4.1%
TNAP inhibition | 4.1% | 5.9% | 7.1% | 12.7% | 7.5% | 10.7% | 7.0% | 7.8%
LYP phosphatase | nt | nt | -3.4% | 4.3% | 3.7% | 9.5% | nt | 7.5%
Bfl-1 displacement | -1.7% | -3.9% | 0.1% | -6.4% | 8.4% | 19.8% | 7.6% | -6.3%

(9) CCCC(C(=O)NCc1ccco1)N(C(=O)CNS(=O)(=O)c1ccccc1)c1ccccc1OC (stereo not given)
(10) COc1ccc(Nc2ncnc3c2cnn3Cc2ccccc2)cc1OC
(11) O=C(NCc1ccc(F)cc1)C1C2C=CC3(CN(Cc4cccnc4)C(=O)C13)O2 (stereo not given)
(12) Cc1ccc(-c2nnc(Nc3ccccc3)o2)cc1
(13) Cc1cnn(C(=S)NCCc2ccccc2)c1
(14) CCC(C)N(CC(=O)NCc1ccc(OC)cc1)C(=O)c1csnn1 (stereo not given)
(15) Cc1nnc(SCc2cnc(-c3ccccc3)o2)[nH]c1=O
(16) COCCNC(=O)CS(=O)Cc1nc(-c2ccc(Cl)cc2)oc1C (stereo not given)

compound no. | 9 | 10 | 11 | 12 | 13 | 14 | 15 | 16
HPDE-C7K KRASV12 | -8.6% | 34.2% | -18.1% | 2.1% | -5.5% | -24.7% | -5.4% | -1.8%
HPDE-C7 cytotoxicity | -14.2% | 23.7% | -21.2% | -5.6% | -19.7% | -18.2% | 0.3% | -6.9%
HT1080 viability | 6.6% | -17.4% | 0.5% | 6.2% | -0.9% | -12.9% | 3.9% | 0.6%
TNAP inhibition | 4.4% | 2.1% | -4.7% | 5.9% | 8.0% | 14.9% | 8.6% | 1.7%
LYP phosphatase | 2.2% | nt | 5.1% | 10.2% | -6.3% | nt | -3.2% | -0.9%
Bfl-1 displacement | 2.3% | -4.7% | -2.3% | 1.0% | -3.3% | 3.4% | -0.3% | 0.1%

(17) CCC(C)NC(=O)c1ccc(CS(=O)(=O)c2ccc(OC)cc2)o1 (stereo not given)
(18) COc1cc(-c2nc(-c3ccc(NC(=O)c4ccc5c(c4)OCO5)cc3)no2)cc(OC)c1OC
(19) CC(C)n1nnnc1SCC(=O)Nc1ccccc1N1CCOCC1
(20) COc1ccccc1N1CCN(C(=O)c2cc(-c3ccc(Cl)cc3)on2)CC1
(21) Cc1cc(C)nc(SCCn2c(N3CCC(C)CC3)nc3c2c(=O)n(C)c(=O)n3C)n1
(22) CCOC(=O)CC1=CC(=O)Nc2ccccc2N1
(23) Cn1c(=O)[nH]c(=O)c2c1nc(N1CCCCCC1)n2CC(=O)c1ccccc1
(24) Cn1c(=O)c2c(nc(N3CCC(C(N)=O)CC3)n2CCSc2nc3ccccc3s2)n(C)c1=O

compound no. | 17 | 18 | 19 | 20 | 21 | 22 | 23 | 24
HPDE-C7K KRASV12 | -6.1% | -15.2% | -15.3% | 0.0% | -5.6% | -9.6% | -5.9% | 17.6%
HPDE-C7 cytotoxicity | -7.0% | -20.9% | -16.2% | 6.8% | -19.4% | -7.8% | 3.4% | 6.8%
HT1080 viability | 3.0% | 0.8% | nt | 5.3% | -0.1% | 1.2% | -6.4% | -7.4%
TNAP inhibition | 6.7% | 15.1% | 6.2% | -1.6% | 13.0% | 9.9% | 15.5% | 7.9%
LYP phosphatase | 3.9% | -3.0% | -1.9% | nt | 4.1% | 10.9% | 11.8% | 12.1%
Bfl-1 displacement | 0.9% | -1.4% | -2.9% | -0.2% | -4.1% | -4.4% | -4.1% | 0.5%

(25) N#Cc1c(-c2ccco2)cc(-c2ccc(F)cc2)nc1N
(26) CCOC(=O)c1c(C)oc2ccc(OC(=O)N3CCOCC3)cc12
(27) COc1ccc(-c2nc(C(N)=O)c3[nH]c(=O)n(-c4cccc(C)c4)c3n2)c(OC)c1
(28) O=C(Cn1nc(Cc2cccnc2)c2ccccc2c1=O)NCCCN1CCCC1=O
(29) COc1cc(C2C(C#N)=C(N)Oc3cc(C)oc(=O)c32)ccc1OC(=O)N1CCOCC1 (stereo not given)
(30) Cc1ccc(C)c2[nH]c(=O)c(CN(CCCN(C)C)C(=O)NCc3ccccc3)cc12
(31) CCOC(=O)CSc1nnc(CNc2ccc(Cl)cc2)n1-c1ccccc1
(32) COCCN1Cc2cccc(C(=O)Nc3cccnc3)c2C1=O
(33) CCOc1cc(N2CCOCC2)c(OCC)cc1NC(=O)COC(=O)CCc1c[nH]c2ccccc12

compound no. | 25 | 26 | 27 | 28 | 29 | 30 | 31 | 32 | 33
HPDE-C7K KRASV12 | 7.0% | 6.3% | 4.4% | -1.1% | 5.7% | 1.0% | -5.5% | 10.2% | 16.4%
HPDE-C7 cytotoxicity | -1.0% | -15.0% | 3.5% | 8.7% | 1.8% | 6.2% | -0.7% | 7.6% | 1.1%
HT1080 viability | 7.2% | -4.8% | 2.5% | 7.8% | -3.1% | 2.3% | 20.3% | -5.1% | 0.1%
TNAP inhibition | 9.3% | 3.5% | -12.3% | 5.2% | 12.2% | 12.8% | 10.9% | 9.6% | 16.9%
LYP phosphatase | -4.9% | 7.2% | 10.9% | -25.3% | nt | 4.5% | 1.7% | -0.7% | 6.3%
Bfl-1 displacement | -1.6% | -1.1% | 0.1% | 2.4% | -4.0% | -5.4% | 0.3% | 7.0% | -0.2%
